High-throughput results: PubChem, Broad Institute
A1 apoptosis 2: blocks A1, raising caspase activity; caspase activation, % (no concentration beside the values); 24,000 tested, under 10 active; MEF A1-2A-BIM cells, caspase-Glo luminescence, 3 h; percent of clofoctol response, DMSO zero; in the data active means caspase activation above about 5.9%;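 further: wells of about 30 µL received 50 nL stock; the first replicate is given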
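Material: mouse embryonic fibroblasts co-expressing A1 and BIM (A1-2A-BIM), primed for A1 dependence / Quantity: 2500 cells/well / Buffer or medium: RPMI-1640 growth medium with 10% FBS / Doses: 50 nL compound per well, pinned / Schedule: 3 h compound exposure at 37 °C / Signal: Caspase-Glo luminescence (DEVD substrate) / Measure: Caspase-3/7 activation, seen as rise in luminescence signal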
An asterisk follows results filed as active. An excerpt. The share of hits here may be higher or lower than overall.

SMILES | A1 apoptosis 2
C[C@@H]1CN([C@@H](C)CO)C(=O)c2cc(NS(=O)(=O)c3cn(C)cn3)ccc2O[C@H]1CN(C)Cc1ccc(C(=O)Nc2ccccc2N)cc1 | 1.6
COc1ccc(S(=O)(=O)Nc2ccc3c(c2)C(=O)N([C@H](C)CO)C[C@H](C)[C@@H](CN(C)S(=O)(=O)c2ccc(C)cc2)O3)cc1 | 0.3
C[C@H]1CN([C@@H](C)CO)C(=O)c2cc(NC(=O)NC3CCCCC3)ccc2O[C@H]1CN(C)C(=O)Nc1ccc(F)cc1 | -0.1
CC(C)NC(=O)Nc1ccc2c(c1)C(=O)N([C@H](C)CO)C[C@H](C)[C@@H](CN(C)S(=O)(=O)c1cccs1)O2 | 1.2
CC1(C)[C@H]2CC=C(/C=N\NC(=O)c3ccc(C(=O)NO)cc3)[C@@H]1C2 | -0.4
C[C@H]1CN([C@@H](C)CO)C(=O)CCCn2nncc2CO[C@H]1CN(C)Cc1ccc2c(c1)OCCN2C | 0.3
COc1ccc(CN(C)C[C@@H]2Oc3c(NS(=O)(=O)c4c(C)noc4C)cccc3C(=O)N([C@@H](C)CO)C[C@@H]2C)cc1 | -1.1
C[C@@H]1CN([C@@H](C)CO)C(=O)c2cccc(NC(=O)Nc3ccc(F)cc3)c2O[C@H]1CN(C)Cc1ccccc1 | -0.9
Cc1noc(C)c1S(=O)(=O)Nc1ccc2c(c1)CC(=O)N([C@@H](C)CO)C[C@H](C)[C@H](CN(C)Cc1ccccc1)O2 | -0.3
C[C@H](CO)N1C[C@H](C)[C@H](CN(C)C)Oc2ccc(NS(=O)(=O)c3ccccc3)cc2CC1=O | -0.3
Cc1noc(C)c1NC(=O)N(C)C[C@@H]1OCCCC[C@@H](C)Oc2ccc(NC(=O)C3CCCCC3)cc2C(=O)N([C@H](C)CO)C[C@@H]1C | -0.3
CC(C)COC(=O)N(C)C[C@@H]1OCc2cnnn2CCCC(=O)N([C@@H](C)CO)C[C@@H]1C | -0.1
CCCN(C)C[C@H]1OCCCC[C@@H](C)Oc2ccc(NS(=O)(=O)c3ccc(F)cc3)cc2C(=O)N([C@@H](C)CO)C[C@@H]1C | 0.4
C[C@H]1CN([C@@H](C)CO)C(=O)c2cc(N(C)C)ccc2O[C@@H]1CN(C)C(=O)NC1CCCCC1 | 1.0
C[C@H]1CN([C@@H](C)CO)C(=O)Cc2cc(NS(=O)(=O)c3cn(C)cn3)ccc2O[C@@H]1CN(C)Cc1ccc(C(=O)Nc2ccccc2N)cc1 | 0.0
C[C@@H]1CN([C@H](C)CO)C(=O)c2cc(NC(=O)Nc3ccc(C(F)(F)F)cc3)ccc2O[C@@H]1CN(C)Cc1ccc2c(c1)OCO2 | -0.5
CC(=O)OCO/N=[N+](\[O-])N1CCCC1 | 0.2
COc1ccc(NC(=O)Nc2ccc3c(c2)C(=O)N([C@H](C)CO)C[C@@H](C)[C@H](CN(C)C(=O)C2CCCCC2)OCCCC[C@@H](C)O3)cc1 | 0.9
Cc1noc(C)c1NC(=O)Nc1ccc2c(c1)C(=O)N([C@@H](C)CO)C[C@@H](C)[C@H](CN(C)C(=O)Nc1ccc(F)cc1)O2 | 1.3
Cc1ccc(S(=O)(=O)N(C)C[C@H]2Oc3ccc(NC(=O)Nc4ccccc4)cc3C(=O)N([C@H](C)CO)C[C@H]2C)cc1 | -1.3
Cc1noc(C)c1NC(=O)Nc1ccc2c(c1)C(=O)N([C@H](C)CO)C[C@H](C)[C@@H](CN(C)Cc1ccc(C(=O)Nc3ccccc3N)cc1)O2 | -1.0
C[C@@H]1CN([C@@H](C)CO)C(=O)Cc2cc(NC(=O)C3CC3)ccc2O[C@@H]1CN(C)Cc1ccc(-c2ccccc2)cc1 | 0.5
C[C@@H]1CN([C@H](C)CO)C(=O)c2cc(NC(=O)CCN3CCOCC3)ccc2O[C@H]1CN(C)CC1CCCCC1 | 0.6
CC(C)NC(=O)Nc1ccc2c(c1)C(=O)N([C@H](C)CO)C[C@@H](C)[C@@H](CN(C)C(=O)Cc1ccccc1)OCCCC[C@H](C)O2 | 1.2
C[C@@H]1CN([C@@H](C)CO)C(=O)Cc2cc(NC(=O)Cn3cnnn3)ccc2O[C@H]1CN(C)S(=O)(=O)c1ccc(F)cc1 | 0.2

Molecules shown so far containing two or more sulfur atoms, in the order listed:
SMILES | A1 apoptosis 2
COc1ccc(S(=O)(=O)Nc2ccc3c(c2)C(=O)N([C@H](C)CO)C[C@H](C)[C@@H](CN(C)S(=O)(=O)c2ccc(C)cc2)O3)cc1 | 0.3
CC(C)NC(=O)Nc1ccc2c(c1)C(=O)N([C@H](C)CO)C[C@H](C)[C@@H](CN(C)S(=O)(=O)c1cccs1)O2 | 1.2

(list continues)
SMILES | A1 apoptosis 2
C[C@H]1CN([C@@H](C)CO)C(=O)c2cccc(NC(=O)c3ccc(-c4nccs4)cc3)c2O[C@H]1CN(C)C(=O)NC1CCCCC1 | -0.3
Cc1noc(C)c1S(=O)(=O)Nc1ccc2c(c1)CC(=O)N([C@@H](C)CO)C[C@@H](C)[C@@H](CN(C)Cc1ccncc1)O2 | 1.2
C[C@@H]1CN([C@@H](C)CO)C(=O)c2cc(NC(=O)Nc3ccc(F)cc3)ccc2O[C@H]1CN(C)C(=O)Nc1cccc2ccccc12 | -0.2
CNC[C@H]1Oc2c(NC(=O)Nc3c(C)noc3C)cccc2C(=O)N([C@H](C)CO)C[C@@H]1C | -0.4
COc1ccc(NC(=O)Nc2ccc3c(c2)C(=O)N([C@H](C)CO)C[C@H](C)[C@@H](CN(C)C)OCCCC[C@@H](C)O3)cc1 | -1.3
C[C@H]1CN([C@@H](C)CO)C(=O)Cc2cc(NS(=O)(=O)c3ccc(F)cc3)ccc2O[C@@H]1CN(C)Cc1ccccc1 | -0.8
C[C@@H]1CN([C@H](C)CO)C(=O)Cc2cc(NC(=O)CCC(F)(F)F)ccc2O[C@H]1CN(C)S(=O)(=O)c1cccs1 | -0.8
CNC[C@H]1Oc2ccc(N(C)C)cc2CC(=O)N([C@H](C)CO)C[C@@H]1C | -1.0
C[C@H]1CCCCO[C@H](CN(C)C(=O)C2CCCCC2)[C@@H](C)CN([C@@H](C)CO)C(=O)c2cc(NC(=O)Nc3ccc(C(F)(F)F)cc3)ccc2O1 | -0.8
Cc1noc(C)c1NC(=O)Nc1ccc2c(c1)C(=O)N([C@H](C)CO)C[C@@H](C)[C@@H](CN(C)C(=O)NC1CCCCC1)O2 | -0.2
C[C@@H]1CN([C@@H](C)CO)C(=O)c2cc(NC(=O)c3ccncc3)ccc2O[C@@H]1CN(C)C(=O)Nc1cccc2ccccc12 | -0.2
COc1cc(/C=C/C=N/NC(=O)c2cccc(C(=O)NO)c2)ccc1O | 0.4
C[C@@H]1CN([C@H](C)CO)C(=O)Cc2cc(NC(=O)Cc3cn(C)c4ccccc34)ccc2O[C@@H]1CN(C)Cc1ccncc1 | 0.7
Cc1noc(C)c1NC(=O)N(C)C[C@@H]1OCCCC[C@H](C)Oc2ccc(NC(=O)C3CCCCC3)cc2C(=O)N([C@H](C)CO)C[C@@H]1C | 0.7
O=C(CCCCCCC(=O)Nc1ccccc1O)N/N=C/c1ccc(F)c(Oc2ccccc2)c1 | 0.1
C[C@@H]1CCCCO[C@H](CN(C)C(=O)Nc2ccccc2)[C@@H](C)CN([C@@H](C)CO)C(=O)c2cc(NS(=O)(=O)c3ccc(F)cc3)ccc2O1 | 0.3
CNC[C@@H]1Oc2c(NC(=O)C3CCOCC3)cccc2C(=O)N([C@H](C)CO)C[C@H]1C | -2.5
C[C@@H]1CCCCO[C@H](CN(C)S(C)(=O)=O)[C@@H](C)CN([C@H](C)CO)C(=O)c2cc(NC(=O)C3CCCCC3)ccc2O1 | 0.2
C[C@@H]1CCCCO[C@H](CN(C)C(=O)CCC(F)(F)F)[C@H](C)CN([C@H](C)CO)C(=O)c2cc(NC(=O)CCC(F)(F)F)ccc2O1 | 0.1
C[C@H](CO)N1C[C@H](C)[C@H](CN(C)C(=O)Nc2ccc3c(c2)OCCO3)OCc2cn(nn2)CCCC1=O | 0.5
C[C@@H]1CCCCO[C@H](CN(C)S(=O)(=O)c2ccc(Cl)cc2)[C@H](C)CN([C@@H](C)CO)C(=O)c2cc(NC(=O)Nc3ccc(C(F)(F)F)cc3)ccc2O1 | 0.3
C[C@H]1CN([C@@H](C)CO)C(=O)c2cccc(NS(=O)(=O)c3ccccc3)c2O[C@@H]1CN(C)S(=O)(=O)c1cn(C)cn1 | -0.3
C[C@@H]1CN([C@H](C)CO)C(=O)CCCn2cc(nn2)CO[C@H]1CN(C)Cc1ccc(Cl)c(Cl)c1 | 0.2
C[C@@H]1CN([C@@H](C)CO)C(=O)c2cc(NC(=O)Cc3cn(C)c4ccccc34)ccc2O[C@@H]1CN(C)CC1CCCCC1 | -0.1
C[C@@H]1CCCCO[C@@H](CN(C)S(=O)(=O)c2ccccc2)[C@@H](C)CN([C@H](C)CO)C(=O)c2cc(NC(=O)CCC(F)(F)F)ccc2O1 | 0.3

Further entries follow.
SMILES | A1 apoptosis 2
C[C@@H]1CN([C@H](C)CO)C(=O)c2cccc(NC(=O)c3nc4ccccc4s3)c2O[C@H]1CN(C)S(=O)(=O)c1cccs1 | -0.7
Cc1ccc(S(=O)(=O)Nc2ccc3c(c2)CC(=O)N([C@H](C)CO)C[C@H](C)[C@H](CN(C)C(=O)NC(C)C)O3)cc1 | -0.2
Cc1noc(C)c1NC(=O)Nc1ccc2c(c1)C(=O)N([C@@H](C)CO)C[C@H](C)[C@H](CN(C)Cc1ccc(Cl)c(Cl)c1)OCCCC[C@@H](C)O2 | 0.0
Cc1noc(C)c1NC(=O)N(C)C[C@H]1Oc2ccc(NS(C)(=O)=O)cc2C(=O)N([C@@H](C)CO)C[C@@H]1C | -0.2
Cc1noc(C)c1NC(=O)Nc1ccc2c(c1)C(=O)N([C@H](C)CO)C[C@@H](C)[C@H](CN(C)S(=O)(=O)c1ccc(F)cc1)O2 | 0.1
COc1cccc(S(=O)(=O)N(C)C[C@@H]2Oc3ncc(C#Cc4ccc(OC)c(OC)c4)cc3C(=O)N([C@H](C)CO)C[C@@H]2C)c1 | -1.4
CC(C)NC(=O)Nc1ccc2c(c1)C(=O)N([C@H](C)CO)C[C@H](C)[C@H](CN(C)C(=O)Nc1ccc(F)cc1)OCCCC[C@@H](C)O2 | 0.4
C[C@H](CO)N1C[C@H](C)[C@@H](CN(C)C(=O)Cc2ccccc2)OCCCC[C@H](C)Oc2ccc(NC(=O)Nc3ccccc3)cc2C1=O | -0.3
O=C(CCCCCC(=O)N/N=C/c1c(F)c(F)c(F)c(F)c1F)NO | 0.1
C[C@@H]1CN([C@H](C)CO)C(=O)c2cc(NC(=O)Nc3cccc4ccccc34)ccc2O[C@H]1CN(C)Cc1ccc(Cl)c(Cl)c1 | -1.5
COc1ccc(S(=O)(=O)N(C)C[C@H]2Oc3ccc(NC(=O)NC4CCCCC4)cc3C(=O)N([C@H](C)CO)C[C@@H]2C)cc1 | 0.4
C[C@@H]1CCCCO[C@H](CN(C)C(=O)c2ccncc2)[C@H](C)CN([C@@H](C)CO)C(=O)c2cc(NC(=O)NC3CCCCC3)ccc2O1 | 0.0
C[C@@H]1CN([C@@H](C)CO)C(=O)Cc2cc(NC(=O)Nc3ccc4c(c3)OCO4)ccc2O[C@H]1CN(C)Cc1ccc(C(=O)O)cc1 | 0.8
Cc1noc(C)c1NC(=O)N(C)C[C@H]1Oc2ccc(NC(=O)Cc3cn(C)c4ccccc34)cc2C(=O)N([C@@H](C)CO)C[C@H]1C | -1.8
O=C(O)CCCCCC(=O)N=NC=C1C=CN(O)C=C1 | 1.4
CNC[C@@H]1Oc2c(NS(=O)(=O)c3ccc(C)cc3)cccc2C(=O)N([C@H](C)CO)C[C@H]1C | 1.2
C[C@@H]1CCCCO[C@H](CN(C)Cc2ccc(C(=O)O)cc2)[C@H](C)CN([C@@H](C)CO)C(=O)c2cc(NC(=O)c3ccncc3)ccc2O1 | 0.5
Cc1ccc(S(=O)(=O)Nc2ccc3c(c2)C(=O)N([C@@H](C)CO)C[C@@H](C)[C@@H](CN(C)CC2CCCCC2)O3)cc1 | 0.8
Cc1ccc(S(=O)(=O)N(C)C[C@H]2Oc3ccc(NS(=O)(=O)c4ccc(Cl)cc4)cc3CC(=O)N([C@H](C)CO)C[C@@H]2C)cc1 | -0.1
COc1ccc(C#Cc2ccc3c(c2)[C@]2(C(=O)N3)[C@H](c3ccc(OCCO)cc3)N3[C@H](c4ccccc4)[C@H](c4ccccc4)OC(=O)[C@H]3[C@@H]2C(=O)N2CCN(c3ncccn3)CC2)cc1 | -0.4
CC(C)NC(=O)Nc1cccc2c1O[C@H](CN(C)Cc1ccc(C(F)(F)F)cc1)[C@H](C)CN([C@H](C)CO)C2=O | -1.1

Structural class: those above containing an aryl methoxy group.
SMILES | A1 apoptosis 2
COc1ccc(S(=O)(=O)Nc2ccc3c(c2)C(=O)N([C@H](C)CO)C[C@H](C)[C@@H](CN(C)S(=O)(=O)c2ccc(C)cc2)O3)cc1 | 0.3
COc1ccc(CN(C)C[C@@H]2Oc3c(NS(=O)(=O)c4c(C)noc4C)cccc3C(=O)N([C@@H](C)CO)C[C@@H]2C)cc1 | -1.1
COc1ccc(NC(=O)Nc2ccc3c(c2)C(=O)N([C@H](C)CO)C[C@@H](C)[C@H](CN(C)C(=O)C2CCCCC2)OCCCC[C@@H](C)O3)cc1 | 0.9
COc1ccc(NC(=O)Nc2ccc3c(c2)C(=O)N([C@H](C)CO)C[C@H](C)[C@@H](CN(C)C)OCCCC[C@@H](C)O3)cc1 | -1.3
COc1cc(/C=C/C=N/NC(=O)c2cccc(C(=O)NO)c2)ccc1O | 0.4
COc1cccc(S(=O)(=O)N(C)C[C@@H]2Oc3ncc(C#Cc4ccc(OC)c(OC)c4)cc3C(=O)N([C@H](C)CO)C[C@@H]2C)c1 | -1.4
COc1ccc(S(=O)(=O)N(C)C[C@H]2Oc3ccc(NC(=O)NC4CCCCC4)cc3C(=O)N([C@H](C)CO)C[C@@H]2C)cc1 | 0.4
COc1ccc(C#Cc2ccc3c(c2)[C@]2(C(=O)N3)[C@H](c3ccc(OCCO)cc3)N3[C@H](c4ccccc4)[C@H](c4ccccc4)OC(=O)[C@H]3[C@@H]2C(=O)N2CCN(c3ncccn3)CC2)cc1 | -0.4
